# BJeLR lethal – kills HRASV12-expressing BJeLR cells; inhibition, % (test concentration not listed); BJeLR (HRASV12) viability, CellTiter-Glo ATP luminescence, 48 h; reference of the scale not given here; actives 0.17% (n = 300,000); AID 1554;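 active = replicate mean above 50%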;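 also: 50 nL library stock added to about 25 µL; numbers are from one replicate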
# Sa RN4220 lethal – S. aureus RN4220 growth inhibition | actives 0.33% (n = 330,000) | inhibition, % (test concentration not listed) | OD600, 16 h;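 active = z-score of -3 or lower and OD600 up to 0.18 on both plates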;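 also: plate controls were untreated cells for no effect and reference antibiotic for full effect; stock transfer was 100 nL into about 80 µL; one replicate is shown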
# PrP 5UTR inh – suppresses PrP 5' UTR mRNA reporter expression; cell-based PrP 5' UTR mRNA reporter, plate reader; inhibition, % (concentration not given with the values); actives 0.35% (n = 340,000); AID 488862;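 active = every replicate at 50% or more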;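 also: 0 = median of the neutral control wells; tested in H4 reporter cells; numbers are from one replicate; inactives centre near -14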
# Autofluor counter – compound fluorescence in toxin protease inhibitor counterscreen; compound autofluorescence counterscreen, microsphere flow cytometry; hits give high values; fluorescence intensity (no concentration beside the values); actives 3.1% (n = 360,000);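 active = at least 3 SD above the mean of all compounds, about 16000 in these data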;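 also: 100 nL of 1 mM stock went into each well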
# Sa ugtP lethal – compounds lethal to S. aureus RN4220 ugtP deletion mutant | OD600 growth, 16 h; some inactives read as strong as hits | growth inhibition, % (no concentration beside the values) | actives 0.54% (n = 330,000) | AID 1259309;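 active = z-score under -3 and OD600 up to 0.15 on both plates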;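 also: plate controls were untreated wells for no effect and antibiotic for full effect; wells of about 80 µL received 100 nL stock; the first replicate is given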
# Mtb hypoxia rep – reduces hypoxia-regulated biosensor signal in M. tuberculosis; M. tuberculosis hypoxia-regulated fluorescent reporter, fluorescence; fluorescence inhibition, % (concentration not given with the values); actives 0.1% (n = 300,000); AID 1159583;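 active = 35 to 45% if threefold the growth effect, above 45% if 1.5-fold the growth effect; inactive = the rest, general growth blockers included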;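 also: wells of about 50 µL received 100 nL stock; 0% = vehicle wells and 100% = reference inhibitor wells; whole bacteria with a GFP reporter of the hypoxia response; strong numbers were not always called active; many hits fall short of the cut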
# Mtb hypoxia rep growth – recorded beside Mtb hypoxia rep, whose call it bears; growth inhibition, %; measured here: M. tuberculosis growth (absorbance);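 0% = vehicle and 100% = reference antibiotic; read after six days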
# Starred values were filed as active, the others as inactive; nt = not tested or not shown.
SMILES,BJeLR lethal,Sa RN4220 lethal,PrP 5UTR inh,Autofluor counter,Sa ugtP lethal,Mtb hypoxia rep,Mtb hypoxia rep growth
O=C(NN=Cc1ccc(OC(=O)c2ccccc2Cl)cc1)c1ccc(O)cc1,nt,3.9,nt,nt,3,3,6
CNC(=S)N(CCc1c(C)[nH]c2ccc(OC)cc12)Cc1ccco1,-8,3.5,-1,3871,-8,-2,12
CCOCCCNC(=O)c1cc(=O)n(Cc2cccc(C)c2)c2ccccc12,nt,1.9,-37,3975,1,9,-2
CCOC(=O)C1CCCN(C(=O)C2CCN(S(=O)(=O)c3ccc(Cl)c(C(F)(F)F)c3)CC2)C1 (stereo not given),nt,7.6,-22,3494,3,0,2
CC(C)CCC(C)NC(=O)c1ccc2nccnc2c1 (stereo not given),-5,11,-46,4054,5,26,15
CC(C)(C)OC(=O)N1CCC(c2cc(=O)n3[nH]cc(C(=O)Nc4ccc(F)c(Cl)c4)c3n2)CC1,2,-8.0,-18,5764,-24,4,9
CS(=O)(=O)N(CC(=O)NCCC1=CCCCC1)c1cccc([N+](=O)[O-])c1,7,6.0,-16,3192,-2,7,11
O=C(Nc1cccc(Cl)c1)Nc1ccc2nccnc2c1,-5,-0.5,-33,3744,-10,1,8
Fc1ccccc1N1CCN(C(c2cccs2)c2nnnn2CCc2ccccc2)CC1 (stereo not given),nt,2.5,1,3830,5,nt,nt
NS(=O)(=O)c1ccc(NC(=O)C2Cc3ccccc3CN2C(=O)c2ccco2)cc1 (stereo not given),0,3.8,-38,3735,4,15,7
CCOc1ccc(/C=N/NC(=O)CC(=O)NCc2ccccc2)cc1,-3,nt,-1,3467,nt,nt,nt
COC(=O)c1cc(OC)c(OC)cc1NC(=O)c1cc(-c2ccccc2)nc2ccccc12,-11,4.8,-29,10331,-9,2,8
COc1ccc(CNC(=O)C2Cc3ccccc3CN2C(=O)c2ccco2)cc1 (stereo not given),1,1.9,-28,4812,0,10,12
COc1cccc(N2C(=O)N(c3ccccc3)C3CS(=O)(=O)CC32)c1 (stereo not given),20,2.2,-13,6834,1,5,8
COCCCn1c(-c2cccs2)nc2nc3ccccc3nc21,-4,9.8,-14,3938,7,15,12
CC1C(=O)N2CCCc3cc(S(=O)(=O)Nc4ccccc4C(N)=O)cc1c32 (stereo not given),9,-0.1,-4,5330,-3,-8,-6
C[C@]12C(=O)N(c3ccc(C(F)(F)F)cc3)C(=O)N1[C@@H]1c3ccccc3OC[C@@H]1[C@H]2c1ccccc1,12,-14,-22,3062,-9,3,2
COc1ccc(C(=O)NCCS(=O)(=O)NCC2CCCO2)cc1 (stereo not given),-1,3.5,-24,4218,11,-5,4
Cc1cc(COc2ccccc2OCCN2CCN(C)CC2)no1,-11,-0.6,-2,2535,3,6,1
Cc1cccc(NC(=O)c2ccc(C3SCC(=O)N3CCc3ccccc3)cc2)c1 (stereo not given),3,-4.0,-16,7507,-5,3,3
CC(C)Cn1c(=O)c2c(nc3n2CC(C)CN3Cc2ccccc2)n(C)c1=O (stereo not given),2,0.5,-2,5858,1,3,13
CN(C(=O)c1ccc(NC(=O)C2CCCN(C(=O)OC(C)(C)C)C2)cc1)C1CCC1 (stereo not given),nt,3.8,-19,4265,2,11,5
O=C(CSc1nncc2ccccc12)Nc1ccc(C(=O)O)cc1,6,4.6,-3,4924,7,-1,-7
COc1cc(C(=O)OCC(=O)Nc2ccc3c(c2)OC(F)(F)O3)ccc1OCc1c(C)noc1C,2,-4.6,-29,3487,-10,2,-4
CCn1c(COc2ccccc2OC)nnc1SCC#N,-1,3.9,-6,9444,4,6,7
CCCn1nc(C(=O)OCc2nc(N)nc(Nc3ccccc3C)n2)c2ccccc2c1=O,nt,0.8,-12,nt,2,6,-3
CCC1=C(OC(=O)N(CC)CC)N2C(=O)OC(=NCCOC)[C@]2(Cc2ccccc2)C2C1=CCC1C(=O)N(C)C(=O)C12 (stereo not given in full),nt,3.0,nt,nt,0,10,11
O=c1ncn(-c2ccccc2F)c2ncccc12,2,3.5,-19,21215*,-1,4,-2
CCOC(=O)c1sc(NC(=O)CCC(=O)O)nc1C,-3,2.3,-32,4321,0,-2,-10
O=C(CF)NC(Nc1cccc2cccnc12)C(Cl)(Cl)Cl (stereo not given),10,8.3,-17,3187,-7,nt,nt
CN(C)S(=O)(=O)N1CCN(c2ccc(Cl)cc2)CC1,0,5.0,-2,16470*,9,14,12
O=C(NCCCN1CCOCC1)c1cc2c(s1)-c1ccccc1OC2,9,-0.1,0,4352,9,9,1
Cc1cnc(C(=O)OCC(=O)Nc2ccc(Oc3ccccc3)cc2)cn1,-3,-16,-19,2821,-6,5,4
O=C(COC(=O)CN1C(=O)c2ccccc2C1=O)NC1CCCCC1,10,nt,-29,5949,nt,nt,nt
COc1ccc(C(=O)NCCS(=O)(=O)N2CCc3ccccc3C2)c(OC)c1,0,3.8,-20,nt,4,-6,-4
COCC(=O)N(Cc1ccccc1)c1ccccn1,2,1.8,-12,6531,-1,10,9
Cc1cc(NC(=O)CN2C(=O)c3ccccc3S2(=O)=O)no1,-3,0.1,-8,6333,2,-2,-1
CC(=NNC(=O)c1ccccc1)c1ccccc1Br,nt,5.0,nt,nt,7,17,13
CCCc1cc(Nc2ccccc2)n2ncnc2n1,-17,2.9,-6,3724,-3,-5,10
Cc1ccn2c(NC3CCCC3)c(-c3ccsc3)nc2c1,-14,-0.3,-9,5581,0,1,2
O=C(NC(=O)c1ccccc1)NC1(C(F)(F)F)OCCO1,-4,2.8,nt,nt,-1,11,6
CC(C)NC(=O)Cn1cc(C#N)c2cc(Br)ccc21,7,-0.6,-30,8138,1,8,7
ON(Cc1c(F)cccc1Cl)Cc1c(F)cccc1Cl,-11,4.4,-19,4276,2,8,0
CCOc1cccc(NC(=O)Cn2nc(-c3ccc4c(c3)OCCO4)ccc2=O)c1,6,6.1,-23,2954,-2,7,3
O=C(NCc1ccco1)c1ccc2c(c1)N(Cc1ccccc1)C(=O)CS2=O (stereo not given),1,1.2,61*,5807,14,nt,nt

# 17 neighbouring records from above, for reference:
SMILES,BJeLR lethal,Sa RN4220 lethal,PrP 5UTR inh,Autofluor counter,Sa ugtP lethal,Mtb hypoxia rep,Mtb hypoxia rep growth
CCCn1nc(C(=O)OCc2nc(N)nc(Nc3ccccc3C)n2)c2ccccc2c1=O,nt,0.8,-12,nt,2,6,-3
CCC1=C(OC(=O)N(CC)CC)N2C(=O)OC(=NCCOC)[C@]2(Cc2ccccc2)C2C1=CCC1C(=O)N(C)C(=O)C12 (stereo not given in full),nt,3.0,nt,nt,0,10,11
O=c1ncn(-c2ccccc2F)c2ncccc12,2,3.5,-19,21215*,-1,4,-2
CCOC(=O)c1sc(NC(=O)CCC(=O)O)nc1C,-3,2.3,-32,4321,0,-2,-10
O=C(CF)NC(Nc1cccc2cccnc12)C(Cl)(Cl)Cl (stereo not given),10,8.3,-17,3187,-7,nt,nt
CN(C)S(=O)(=O)N1CCN(c2ccc(Cl)cc2)CC1,0,5.0,-2,16470*,9,14,12
O=C(NCCCN1CCOCC1)c1cc2c(s1)-c1ccccc1OC2,9,-0.1,0,4352,9,9,1
Cc1cnc(C(=O)OCC(=O)Nc2ccc(Oc3ccccc3)cc2)cn1,-3,-16,-19,2821,-6,5,4
O=C(COC(=O)CN1C(=O)c2ccccc2C1=O)NC1CCCCC1,10,nt,-29,5949,nt,nt,nt
COc1ccc(C(=O)NCCS(=O)(=O)N2CCc3ccccc3C2)c(OC)c1,0,3.8,-20,nt,4,-6,-4
COCC(=O)N(Cc1ccccc1)c1ccccn1,2,1.8,-12,6531,-1,10,9
Cc1cc(NC(=O)CN2C(=O)c3ccccc3S2(=O)=O)no1,-3,0.1,-8,6333,2,-2,-1
CC(=NNC(=O)c1ccccc1)c1ccccc1Br,nt,5.0,nt,nt,7,17,13
CCCc1cc(Nc2ccccc2)n2ncnc2n1,-17,2.9,-6,3724,-3,-5,10
Cc1ccn2c(NC3CCCC3)c(-c3ccsc3)nc2c1,-14,-0.3,-9,5581,0,1,2
O=C(NC(=O)c1ccccc1)NC1(C(F)(F)F)OCCO1,-4,2.8,nt,nt,-1,11,6
CC(C)NC(=O)Cn1cc(C#N)c2cc(Br)ccc21,7,-0.6,-30,8138,1,8,7

# (continued)
SMILES,BJeLR lethal,Sa RN4220 lethal,PrP 5UTR inh,Autofluor counter,Sa ugtP lethal,Mtb hypoxia rep,Mtb hypoxia rep growth
Cc1cc(NC(=O)COC(=O)CNC(=O)c2cccs2)c([N+](=O)[O-])cc1C,2,0.5,-16,4400,7,6,0
Cc1ccc(OCCN2CCN(C(=O)CCC(=O)Nc3nnc(CC(C)C)s3)CC2)cc1,-1,-3.6,-11,3394,16,8,5
COc1cccc(CN(C)C(=O)c2cc(-c3ccc(OC)c(OC)c3)nc3ccccc23)c1,-5,3.8,-17,4415,16,4,0
O=C(NCc1ccc2c(c1)OCO2)C1CCCN1C(=O)Nc1cccc(F)c1 (stereo not given),3,-2.1,-9,5015,8,nt,nt
COc1ccccc1/C=C/CN1CCCC(CCC(=O)NCc2ccccc2F)C1 (stereo not given),-1,6.4,-15,5548,3,0,11
CC1(C)S[C@@H]2[C@H](NC(=O)COc3ccccc3)C(=O)N2C1C(=O)OCc1ccccc1 (stereo not given in full),7,nt,-20,4073,nt,nt,nt
COc1ccc(-c2nnc(CSc3nc4ccccc4c(=O)n3C)o2)cc1OC,1,0.7,-30,10843,6,3,-2
CCc1ccc(NC(=O)Cn2ncc3c4ccccc4n(C)c3c2=O)cc1,0,3.3,-4,3813,7,12,9
CC(=O)OCCNc1cc(N2CCN(C)CC2)c2noc3c2c1C(=O)c1ccccc1-3,nt,-3.0,-18,2574,1,54*,2.4*
COc1ccc(S(=O)(=O)N2CCOCC2)cc1NC(=O)COC(=O)CC1CC2CCC1C2 (stereo not given),nt,3.7,-20,4217,3,2,7
O=C(NCc1ccccc1Cl)C1=CC=CN2CCS(=O)(=O)N=C12,nt,-3.3,-21,3021,-3,-5,-5
CN1C(=O)NC(NS(=O)(=O)c2ccc(N)cc2)(C(F)(F)F)C1=O (stereo not given),-6,4.9,-21,4773,6,4,8
COc1ccc(S(=O)(=O)N2CCN(C(=O)CCC3CCCC3)CC2)cc1,7,-2.4,-6,4197,9,nt,nt
COC(=O)c1ccc(/C=C/C(=O)O)cc1,19,4.5,-13,4151,3,6,4
CCOC(=O)C1=C(O)C(Nc2nccs2)(C(F)(F)F)N=C1C (stereo not given),-6,-0.8,-2,2776,2,nt,nt
CCCCN(C)C(=O)C1CCN(Cc2cccnc2)CC1,-1,0.9,-15,3980,1,10,3
CC(C)(C)CC(C)(C)NC(=S)NC1CCN(Cc2ccccc2)CC1,-3,4.6,-30,2094,18,16,8
C#CCOCCOCCOCCNc1nc(N2CCN(C(=O)[C@H](CCC(=O)O)n3cc([C@@H](N)[C@H](C)CC)nn3)CC2)nc(N2CCN(C(=O)[C@H](CCCCN)n3cc([C@@H](N)CC(N)=O)nn3)CC2)n1,nt,1.4,-14,3615,1,3,9
Cc1cc(NC(=O)CSc2nc3ccccc3c(=O)n2Cc2ccc(F)cc2)no1,-11,5.9,-21,4373,-2,9,-4
CC(=O)c1ccc(OCCNS(=O)(=O)c2ccc(-n3cnnn3)cc2)cc1,1,2.6,-6,5513,11,7,11
N#CC(c1cccc(C(F)(F)F)c1)(c1ncc(C(F)(F)F)cc1Cl)N1CCOCC1 (stereo not given),0,2.3,-36,23108*,-15,9,4
O=C(O)C1Nc2c(Cl)cc(Cl)cc2C2C=CCC12 (stereo not given),-2,14,-42,4335,-1,-3,4
CC1CCN(C(=O)CN(c2ccc(Cl)c(C(F)(F)F)c2)S(C)(=O)=O)CC1,0,2.1,-18,4589,0,13,3
CCN(CC)CCCn1c2c(c(SCC(=O)Nc3ccc4c(c3)OCO4)nc1=O)CCC2,20,3.9,-12,5874,1,3,7
CC1CC1c1ccc(/C=C(\C#N)C(=O)Nc2ccc(Cl)cc2Cl)o1 (stereo not given),-7,5.1,-25,2625,9,11,8
CC12CN(NC(=O)c3ccccc3F)C3(C#N)CC1CCC23C (stereo not given),1,11,-18,4231,10,-4,1

# From PubChem
